High-throughput results as filed in PubChem BioAssay.
GALR2 agonist = GALR2 receptor agonists, primary screen, cell-based | Galanin receptor type 2 (Homo sapiens), O43603 | GALR2-expressing cells, agonist activation read-out | activation, %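 (tested at 5 µM)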 | 140,000 tested, 0.48% active;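 active means above mean plus 3 SD of all compounds, about 5% in these data, not always enough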;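 further: 0% = vehicle buffer wells and 100% = reference agonist at full effect; tested in CHO reporter cells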
RGS16-Gao = modulators of RGS16 binding to Galphao, primary screen, biochemical, human proteins, multiplexed bead flow cytometry. Regulator of G-protein signaling 16 (Homo sapiens) + Guanine nucleotide-binding protein …. binding response (% of control), % at 10 µM. bead-based flow cytometry RGS16-Galphao binding, fluorescence; actives lie on both sides. 220,000 tested, 0.38% active;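 active means below 25% or above 175%, edge rows of some plates excepted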;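 further: Galphao activated by GDP with aluminum fluoride before binding; 100% = wells without compound and 0% = beads without RGS; some results beyond the cut were filed as inactive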
HSV replic up = enhancers of HSV replication in host cells, fold increase, host cell viability; 220,000 tested, 0.005% active; maximum fold increase; HSV replication augmentation in cells;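 active means peak rise of 1.5-fold or more in the series; tested in PC3 cells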;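 further: first round at 10 µM; read as green reporter fluorescence; hits show the peak of a series up to 25 µM; 1 = signal of infected wells without compound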
PKD1 kinase inh = inhibitors of human PKD1 kinase, biochemical, fluorescence polarization; Serine/threonine-protein kinase D1 (Homo sapiens), Q15139; PKD1 kinase fluorescence polarization assay; inhibition, %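 (about 10 µM by stock and volumes)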; 200,000 tested, 0.056% active;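 active means inhibition of 50% or more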;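 further: controls were vehicle for no effect and a reference inhibitor for full effect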
Target sequence (Q15139 whole entry, looked up): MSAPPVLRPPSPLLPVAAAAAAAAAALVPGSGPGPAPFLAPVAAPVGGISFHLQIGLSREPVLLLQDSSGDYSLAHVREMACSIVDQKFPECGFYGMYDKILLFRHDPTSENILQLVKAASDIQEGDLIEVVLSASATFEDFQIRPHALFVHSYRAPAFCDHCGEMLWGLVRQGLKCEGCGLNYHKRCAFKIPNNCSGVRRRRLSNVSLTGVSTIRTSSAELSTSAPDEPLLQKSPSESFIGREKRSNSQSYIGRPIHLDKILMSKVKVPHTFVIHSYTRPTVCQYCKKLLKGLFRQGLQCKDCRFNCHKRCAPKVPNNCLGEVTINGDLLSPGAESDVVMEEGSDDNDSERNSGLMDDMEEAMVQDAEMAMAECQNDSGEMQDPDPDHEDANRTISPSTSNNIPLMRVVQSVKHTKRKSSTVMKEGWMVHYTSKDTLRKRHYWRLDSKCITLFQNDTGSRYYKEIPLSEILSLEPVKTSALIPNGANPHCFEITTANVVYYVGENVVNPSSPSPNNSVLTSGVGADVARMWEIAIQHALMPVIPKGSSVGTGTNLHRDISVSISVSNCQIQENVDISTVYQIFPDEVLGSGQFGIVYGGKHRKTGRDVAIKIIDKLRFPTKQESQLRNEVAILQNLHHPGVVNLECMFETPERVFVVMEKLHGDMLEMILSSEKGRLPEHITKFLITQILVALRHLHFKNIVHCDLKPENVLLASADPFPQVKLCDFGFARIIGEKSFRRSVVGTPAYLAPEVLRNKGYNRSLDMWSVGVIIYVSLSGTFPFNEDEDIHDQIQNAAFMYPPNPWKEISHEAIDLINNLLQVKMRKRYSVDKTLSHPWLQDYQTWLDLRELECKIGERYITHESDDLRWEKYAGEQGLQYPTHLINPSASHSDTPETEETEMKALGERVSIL
INS promoter inh = inhibitors of insulin promoter-driven GFP, primary screen, imaging, TRM-6 cells (human fetal islet line), eGFP reporter, cell count | reporter expression induced with tamoxifen | inhibition, % at 2 µM | 130,000 tested, 0.9% active;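 active means inhibition above the mean plus 3 SD, with well images judged a real hit on visual review, cut at about 60% in these data, passing the limit was not always enough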
INS promoter inh cell count = recorded beside INS promoter inh, whose call it bears; normalized cell count, %; measured here: cell count, toxicity; reference of the scale not given here;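 cells exposed to compound for 48 h; stained nuclei by imaging scaled within each plate; lower means fewer cells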
HSV replic up primary fold = second read-out of HSV replic up, no call of its own (marks repeat the call); fold increase; compound at 10 µM; measured here: primary screen fold increase 10 uM; tested in PC3 cells;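 GFP signal in the first replicate; 1 = infected wells without compound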
* marks the source's active call; other numbers are inactive results; i = inactive; · = no result given.

Each structure is followed by: GALR2 agonist, RGS16-Gao, HSV replic up, HSV replic up primary fold, PKD1 kinase inh, INS promoter inh, INS promoter inh cell count
- COC(=O)c1sccc1NC(=O)c1cc2c(s1)CCCC2
    -0.1, 104, ·, ·, -7, 56, 125
- Cc1nn(Cc2cccc(C(=O)N3N=C(C(F)F)CC3(O)C(F)F)c2)c(C)c1[N+](=O)[O-] (stereo unspecified)
    -1.5, 108, i, 0.95, -5, -49, 59
- CCN(CC)CCNC(C(=O)Nc1cc(C(F)(F)F)ccc1Cl)c1ccccc1 (stereo unspecified)
    0.1, 109, i, 1.1, -9, -6, 154
- Cc1ccc(S(=O)(=O)NC2=NCN(Cc3ccccc3)CN2)cc1
    -0.9, 142, i, 1, 4, ·, ·
- O=C(CN1CCN(c2ccccc2O)CC1)Nc1cccnc1Cl
    ·, 101, i, 1, -3, ·, ·
- C=CCNC(=S)N/N=C/c1cn(-c2ccccc2)nc1-c1ccc(OC)cc1
    0.5, 99, i, 0.96, -3, ·, ·
- CCNC(=O)c1cccc(S(=O)(=O)N2CCCCCC2)c1
    -1.4, 104, i, 0.88, -11, ·, ·
- CCCCNC(=O)C(C#N)c1nc2ccccc2nc1N1CCCC1 (stereo unspecified)
    -0.5, 101, ·, ·, 4, ·, ·
- Cc1cccc(C)c1-n1nnnc1SCSc1nnnn1-c1c(C)cccc1C
    -0.9, 109, i, 1.1, -11, -19, 72
- COc1ccc(N2C(=O)c3ccccc3NC2c2ccc(OC)c(COc3ccccn3)c2)cc1 (stereo unspecified)
    -2.1, 103, i, 0.85, -2, -6, 115
- COc1cccc(NC(=O)Nc2c(C)n(C)n(-c3ccccc3)c2=O)c1
    -1.1, 103, i, 0.99, -10, -7, 157
- CCOC(=O)c1[nH]c(C)c(C(=O)NCc2ccco2)c1C
    ·, 100, i, 0.88, 7, ·, ·
- Cc1ccc(NS(=O)(=O)c2ccc(OCC(N)=O)cc2)cc1
    ·, 101, i, 0.67, -1, -53, 63
- O=C(Cn1cnc2c(nnn2Cc2ccc(Cl)cc2)c1=O)NC1CCCC1
    -1.2, 100, i, 1.1, 0, ·, ·
- O=C(NCc1cccs1)C1CCN(S(=O)(=O)c2cccc3cccnc23)CC1
    ·, 99, i, 1, -11, ·, ·
- CCCC(=O)Nc1ccc2c(c1)c1ccccc1n2CC
    -1.3, 51, i, 0.64, 6, ·, ·
- Cn1c(-c2ccc(Br)o2)nc2ccccc21
    -0.5, 101, i, 1, -12, 66, 73
- CCOC(=O)C1=C(C)N(CCCCCC(=O)O)C(=O)NC1c1ccccc1OC(=O)c1cccs1 (stereo unspecified)
    -1.8, 100, i, 1.1, -6, 5, 97
- CCSc1cc(N2CCCC2)nc(-c2ccccc2)n1
    -0.5, 107, i, 0.91, -2, 43, 106
- CC(c1ccco1)N(C(=O)c1ccc(C(F)(F)F)cc1)c1ccccn1 (stereo unspecified)
    ·, 106, i, 0.89, 0, ·, ·
- O=C(Nc1sc2c(c1C(=O)O)CCCCC2)c1ccccc1
    ·, 98, i, 0.91, 10, ·, ·
- Cc1ccc(C(c2ccc(C)o2)c2cccc([N+](=O)[O-])c2O)o1
    -3.1, 101, i, 0.99, -5, -6, 57
- COc1ccccc1-c1nnc(Nc2nc3c(OC)cccc3s2)o1
    0.7, 103, i, 0.62, 0, -69, 5
- O=C(Cn1cc(C(F)(F)F)cc(Cl)c1=O)Nc1cc(S(=O)(=O)N2CCOCC2)ccc1Cl
    -1.4, 100, i, 0.81, 0, ·, ·
- O=C(NCc1cccs1)c1ccccc1C(=O)NCc1cccs1
    -1.7, 95, i, 1.1, 0, 43, 108
- O=C(Nc1ccc2c(c1)S(=O)(=O)N=C1CCCCCN12)c1ccccc1Cl
    ·, 96, i, 1, 2, ·, ·
- Cc1ccc(S(=O)(=O)Oc2ccccc2/C=C2\SC(=O)NC2=O)cc1
    ·, 98, i, 1.1, 3, ·, ·
- CC(=O)NCc1ccc2[nH]c(C)cc2c1
    -1.7, 99, i, 0.66, 2, ·, ·
- CC(O)CNc1ccc(-c2nn(C)c(=O)c3ccccc23)cc1[N+](=O)[O-] (stereo unspecified)
    ·, 101, i, 0.81, 0, ·, ·
- CN(C)C1N(C(=O)c2ccccc2)N=C2c3ccccc3S(=O)(=O)N21 (stereo unspecified)
    ·, 102, i, 0.96, 1, ·, ·
- Cn1cnnc1SC1c2cccc3cccc(c23)C1NS(=O)(=O)c1ccccc1 (stereo unspecified)
    1.2, 106, i, 0.97, -10, -13, 183
- COc1ccc2[nH]c(=O)c(CN(Cc3ccccc3)Cc3nnnn3CC3CCCO3)cc2c1 (stereo unspecified)
    -0.3, 101, i, 0.92, -7, -114, 50
- O=C(N/N=C/c1ccc(N2CCOCC2)s1)c1ccccc1Br
    ·, 94, i, 0.99, -2, -42, 115
- CN(Cc1ccccc1)C(=O)CN1CCN(C(c2ccccc2)c2ccccc2)CC1
    ·, 100, i, 1.1, -3, 0, 106
- COc1ccc(CCNc2oc(-c3ccc(OC)c(OC)c3)nc2P(=O)(OC)OC)cc1OC
    -0.7, 103, i, 0.98, 0, -60, 139
- Cc1ccc(NC(=O)c2cccc(NC(=O)CCC(=O)O)c2)cc1C
    ·, 96, i, 1, 3, 7, 101
- O=C(CCn1c(=O)sc2ccccc21)NCCN1CCOCC1
    -2.6, ·, i, 1, 0, ·, ·
- O=C(C1CCC1)N1CCc2cc(S(=O)(=O)N3CCCCC3)ccc21
    -0.9, 84, ·, ·, -4, 35, 152
- CN(Cc1cnn(C)c1)C(=O)CC1C(=O)NCCN1Cc1cccc(Oc2ccccc2)c1 (stereo unspecified)
    ·, 101, i, 1, ·, ·, ·
- C=CCn1c(Cc2csc(N)n2)nnc1SCC(=O)Nc1ccc(C(=O)OCC)cc1
    -1.1, 99, i, 0.78, -12, 33, 128

Next part (3 carried over from the part before).
Each structure is followed by: GALR2 agonist, RGS16-Gao, HSV replic up, HSV replic up primary fold, PKD1 kinase inh, INS promoter inh, INS promoter inh cell count
- O=C(C1CCC1)N1CCc2cc(S(=O)(=O)N3CCCCC3)ccc21
    -0.9, 84, ·, ·, -4, 35, 152
- CN(Cc1cnn(C)c1)C(=O)CC1C(=O)NCCN1Cc1cccc(Oc2ccccc2)c1 (stereo unspecified)
    ·, 101, i, 1, ·, ·, ·
- C=CCn1c(Cc2csc(N)n2)nnc1SCC(=O)Nc1ccc(C(=O)OCC)cc1
    -1.1, 99, i, 0.78, -12, 33, 128
- CCCCCCC(=O)NNC(=O)c1c(O)c2ccccc2n(CCC)c1=O
    ·, 106, i, 0.9, 2, 14, 172
- O=C(C(Cl)Cl)N1c2ccccc2OCC1c1ccccc1 (stereo unspecified)
    -3.4, 97, i, 0.9, -15, -10, 50
- Cc1ccc(N(CC2CO2)S(=O)(=O)c2ccc(C)cc2)cc1 (stereo unspecified)
    ·, 100, i, 0.89, -8, ·, ·
- Cc1ccc(-n2nnnc2SCC(=O)Nc2c(C)n(C)n(-c3ccccc3)c2=O)cc1
    -1.6, 107, i, 0.88, -2, -43, 122
- C#CCOCCOCCOCCNc1nc(N2CCN(C(=O)C([C@@H](C)CC)n3cc(C(N)CO)nn3)CC2)nc(N2CCN(C(=O)[C@H](CCC(=O)O)n3cc(C(N)Cc4ccc(O)cc4)nn3)CC2)n1 (stereo partly specified)
    ·, 101, i, 0.94, ·, ·, ·
- Cc1ccc2[nH]cc(C(=O)CCl)c2c1
    -1.1, 104, i, 1.1, 8, -4, 139
- COc1ccc(CCn2c(NN=C3CCCCC3)nc3c2c(=O)[nH]c(=O)n3C)cc1
    ·, 93, i, 0.94, ·, ·, ·
- O=C(CN(c1ccc(F)cc1)S(=O)(=O)c1ccc2c(c1)OCCO2)NCc1cccnc1
    -2.3, 111, i, 1, -4, 59, 93
- Cn1c(=O)c(Sc2ccc(Cl)cc2)c(O)c2ccccc21
    -1.4, 92, i, 0.83, 9, 49, 72
- COc1ccc(CNC(=O)c2cnc(C)cn2)cc1
    -2.3, 85, i, 0.95, 1, -73, 144
- O=C(C1=C[C@H](c2coc3ccccc3c2=O)C[C@H](OCCCCO)O1)N1CCOCC1
    ·, 98, i, 1, 2, ·, ·
- CCNC(=O)c1ccc(C23CC4CC(CC(C4)C2)C3)o1
    ·, 100, i, 0.94, -4, ·, ·
- C=C1CCN(C(C)C(=O)OC)S(=O)(=O)c2ccccc21 (stereo unspecified)
    ·, 96, i, 0.95, ·, ·, ·
- Cc1ccc(C)c2[nH]c(=O)c(CN(CCN3CCCC3)C(=O)Nc3cccc(Cl)c3)cc12
    -2.5, 102, i, 0.73, 3, -3, 79
- COC(=O)/C(C(C)=O)=C(/C=C/C=C/N(C)C)N(C)C
    -0.2, 102, i, 0.72, -4, 13, 133
- CCn1c2ccc(C)cc2c2nnc(NN)nc21
    1.0, 98, i, 0.84, 11, ·, ·
- CCCn1nnnc1NC(=O)c1cccs1
    -1.6, 102, i, 0.73, 6, 11, 73
- Cc1ccc(SCCC(=O)Nc2cc(C)on2)cc1
    ·, 99, i, 0.86, -1, 11, 96
- COc1cc2c(cc1OC)CN(C(=O)c1cc3ccccc3oc1=O)CC2
    -1.3, 177, i, 0.87, -3, 21, 120
- Cc1cc2oc(=O)cc(CN3CCCc4ccccc43)c2cc1C
    -1.5, 94, i, 0.94, -6, ·, ·
- COc1cc([N+](=O)[O-])cc(CN2CCCCC2)c1O
    0.4, 104, i, 1.1, -2, -9, 61
- CCOc1ccc(C(C)=O)cc1CC(C(N)=O)C(N)=O
    -1.0, 105, ·, ·, 4, -35, 99
- CCc1c(C)sc(NC(=O)C2CC2c2ccccc2)c1C(N)=O (stereo unspecified)
    -1.4, 100, i, 0.66, -6, 57, 59
- CC(C)Sc1cc(N2CCCC2)nc(-c2ccc(F)cc2)n1
    -2.7, 103, i, 1, -8, 17, 127
- O=C(CSC1=NCCS1)c1ccc(Cl)cc1
    ·, 96, i, 0.9, -6, ·, ·
- COC(=O)c1sc(S(=O)(=O)N2CCCCC2C(=O)O)c(C(=O)OC)c1C (stereo unspecified)
    -1.7, 100, i, 0.8, -9, 13, 104
- COC(=O)Cc1ccc(NC(=S)NCCSc2ccc(Cl)cc2)cc1
    ·, 101, i, 0.98, ·, ·, ·
- COc1ccc(Cn2c(O)c(C=Nc3ccc(OC)cc3)c3ccccc3c2=O)cc1
    0.0, 26, i, 0.94, -6, -9, 57
- Cc1cccc(C)c1NC(=O)CN1N=NC2C(=O)N(c3cccc(Cl)c3)C(=O)C21 (stereo unspecified)
    -0.9, 47, i, 0.92, -8, 45, 62
- Cc1c(N2C(=O)CSC2c2ccc(F)cc2)c(=O)n(-c2ccccc2)n1C (stereo unspecified)
    ·, 97, i, 0.96, ·, ·, ·
- CCn1c2ccccc2c2cc(C3C(C#N)=C(N)Oc4n[nH]c(COC)c43)ccc21 (stereo unspecified)
    -2.3, 102, i, 0.63, -5, -294, 60

Entries listed so far that contain a Cl atom, in the order listed:
Each structure is followed by: GALR2 agonist, RGS16-Gao, HSV replic up, HSV replic up primary fold, PKD1 kinase inh, INS promoter inh, INS promoter inh cell count
- CCN(CC)CCNC(C(=O)Nc1cc(C(F)(F)F)ccc1Cl)c1ccccc1 (stereo unspecified)
    0.1, 109, i, 1.1, -9, -6, 154
- O=C(CN1CCN(c2ccccc2O)CC1)Nc1cccnc1Cl
    ·, 101, i, 1, -3, ·, ·
- O=C(Cn1cnc2c(nnn2Cc2ccc(Cl)cc2)c1=O)NC1CCCC1
    -1.2, 100, i, 1.1, 0, ·, ·
- O=C(Cn1cc(C(F)(F)F)cc(Cl)c1=O)Nc1cc(S(=O)(=O)N2CCOCC2)ccc1Cl
    -1.4, 100, i, 0.81, 0, ·, ·
- O=C(Nc1ccc2c(c1)S(=O)(=O)N=C1CCCCCN12)c1ccccc1Cl
    ·, 96, i, 1, 2, ·, ·
- O=C(C(Cl)Cl)N1c2ccccc2OCC1c1ccccc1 (stereo unspecified)
    -3.4, 97, i, 0.9, -15, -10, 50
- Cc1ccc2[nH]cc(C(=O)CCl)c2c1
    -1.1, 104, i, 1.1, 8, -4, 139
- Cn1c(=O)c(Sc2ccc(Cl)cc2)c(O)c2ccccc21
    -1.4, 92, i, 0.83, 9, 49, 72
- Cc1ccc(C)c2[nH]c(=O)c(CN(CCN3CCCC3)C(=O)Nc3cccc(Cl)c3)cc12
    -2.5, 102, i, 0.73, 3, -3, 79
- O=C(CSC1=NCCS1)c1ccc(Cl)cc1
    ·, 96, i, 0.9, -6, ·, ·
- COC(=O)Cc1ccc(NC(=S)NCCSc2ccc(Cl)cc2)cc1
    ·, 101, i, 0.98, ·, ·, ·
- Cc1cccc(C)c1NC(=O)CN1N=NC2C(=O)N(c3cccc(Cl)c3)C(=O)C21 (stereo unspecified)
    -0.9, 47, i, 0.92, -8, 45, 62
